HCMV NEC inh: disrupts HCMV UL50-UL53 complex binding. HTRF UL50-UL53 interaction, normalized percent inhibition. inhibition, % (no concentration beside the values). 190,000 compounds, 0.15% hits. AID 1918969;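 active = both replicates at 50% or more, plus weaker picks with an unusually low signal ratio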;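 also: stock transfer was 100 nL into about 20 µL; 0% = negative control wells and 100% = wells with untagged competitor protein; inactives centre near -12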
GIV Gai3 FP: inhibitors of GIV GBA-motif binding to rat Galpha-i3 | P08753 | Galpha-i3/FITC-GIV peptide fluorescence polarization, 90 min; stronger effect = lower value; scaled: aluminum fluoride 0%, vehicle 100% | percent of control (FP), % (no concentration beside the values) | 210,000 compounds, 0.42% hits;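 active = replicate mean at 85% of control or lower, very high polarization wells dropped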;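 also: wells of about 15 µL received 100 nL stock; the first replicate is given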
Target sequence (P08753 whole entry, looked up): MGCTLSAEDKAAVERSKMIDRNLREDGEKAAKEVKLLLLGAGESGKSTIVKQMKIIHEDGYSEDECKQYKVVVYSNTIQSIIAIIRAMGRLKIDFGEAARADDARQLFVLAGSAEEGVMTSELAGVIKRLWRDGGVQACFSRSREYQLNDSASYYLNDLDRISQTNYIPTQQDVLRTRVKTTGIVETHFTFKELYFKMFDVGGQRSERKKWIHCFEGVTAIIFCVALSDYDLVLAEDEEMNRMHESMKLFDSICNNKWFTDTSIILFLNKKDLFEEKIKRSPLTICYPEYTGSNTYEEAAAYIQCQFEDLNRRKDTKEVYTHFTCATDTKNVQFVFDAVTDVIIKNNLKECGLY
Sa growth 42C: blocks Staphylococcus aureus growth. S. aureus RN4220 growth, OD600, 20 h, 42 °C; stronger effect = lower value. relative growth, % (concentration not given with the values). 170,000 compounds, 0.53% hits. AID 720641;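 active = growth at 42 °C up to 50% and 20 or more points under that at 30 °C, or under 10% at both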;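 also: 300 nL library stock went into each well; scaled to the means of positive and negative controls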
Sa growth 42C second temp: recorded beside Sa growth 42C, whose call it bears; relative growth, %; measured here: growth at 30 °C;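 optical density after 20 h as mean of two plates; 100% = untreated growth and lower means inhibition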
* hit, by the source's call; . = not tested or not shown; & = joins results of further samples.

SMILES | HCMV NEC inh | GIV Gai3 FP | Sa growth 42C | Sa growth 42C second temp
CCS(=O)(=O)c1ccccc1C(=O)O | 2 | 102 | 83 | 81
CC1CCc2c(cc(-c3ccccc3)n2-c2ccc(C(=O)NCCN3CCN(C)CC3)cc2)C1 (configuration not stated) | . | 104 | 103 | 85
COc1ccc(CC(=O)N2CCC(c3ccccc3)C2)cc1 (configuration not stated) | . | 100 | 79 | 85
CN(CC(=O)c1c(N)n(C)c(=O)n(C)c1=O)Cc1nc2ccccc2c(=O)[nH]1 | -26 | . | 86 | 85
O=C(CC(NCc1ccccc1)c1ccccc1O)NCc1ccccc1 (configuration not stated) | -12 | . | 92 | 82
COc1ccc(C2=NN3C(C2)c2cc(OC)ccc2OC3c2ccc(OC(C)C)cc2)cc1 (configuration not stated) | -20 | 108 | . | .
CCOC(=O)c1[nH]c2ccccc2c1NC(=O)c1c(F)cccc1F | 14 | 106 | 106 | 93
CC(=O)c1cc(C#N)c(SCC(=O)c2cc3ccccc3oc2=O)nc1C | -5 | 98 | . | .
CC(C)(C)c1nc(CN2CCOCC2)ccc1O | -12 | 98 | 100 | 85
CS(=O)(=O)c1ncc(Cl)c(C(=O)NCCc2ccc(S(N)(=O)=O)cc2)n1 | -16 | 104 | 80 | 79
N#CCSc1nc2ccccc2c(=O)n1CC1CCC(C(=O)NCCc2ccccc2)CC1 (configuration not stated) | 5 | 97 | 115 | 102
Cc1ccc(/C=C/c2onc(C)c2S(=O)(=O)N2CCC(C(=O)N3CCC(N(C)C4CCCCC4)CC3)CC2)cc1 | -65 | 103 | . | .
CCC(=O)N1CCc2cc(Br)cc(S(=O)(=O)CCC(=O)Nc3ccc(CC)cc3)c21 | 0 | 100 | 87 | 91
COc1ccc(CCNC(=O)CSc2nc(C)nc3sc4c(c23)CCCC4)cc1OC | -6 | 103 | . | .
CCOC(=O)N1CCN(C(=O)c2cnn3ccccc23)CC1 | . | 101 | 95 | 86
Cc1cccc(-c2nccc(Nc3ccc(C(=O)N4CCCC4)cc3)n2)c1 | -18 | 102 | . | .
CCc1nn(CC(=O)N(CC)Cc2ccccc2)c(=O)c2cc3occc3n12 | -18 | 103 | 103 | 66
Cc1ccc([N+](=O)[O-])cc1N=Cc1nc(-c2ccc(Br)cc2)oc1O | -34 | 104 | . | .
O=c1oc(-c2cc3c(s2)CCC3)nn1CCN1CCCC1 | -28 | 102 | 90 | 86
COc1cc2c(C(=O)N3CCN(c4cc(Cl)ccc4C)CC3)cn(CC(C)C)c(=O)c2cc1OC | -9 | 108 | 87 | 85
CN(c1ccnc(C(=O)NCc2ccccn2)c1)S(=O)(=O)c1ccccc1 | -19 | 101 | 104 | 84
CCCCn1c(=O)c2sccc2n2c(CCC(=O)NC(C)C)nnc12 | -10 | 98 | . | .
CCc1noc2ncnc(N3CCCC(C(=O)NC(C)C)C3)c12 (configuration not stated) | 5 | 99 | . | .
Cc1c(C(=O)N2CCCC2)oc2ccc3c(c12)C(O)CC1(CCCCC1)O3 (configuration not stated) | -16&6 | 107&99 | 102 | 69
Cc1ccc(C2C(C#N)=C(N)N(N3CCOCC3)C3=C2C(=O)CC(C)(C)C3)cc1 (configuration not stated) | -16 | 107 | 94 | 93
Cc1ccc(-n2nc(C)cc2N)cc1 | -6 | 107 | 85 | 89
COC(=O)c1cc2c(cc1NC(=O)Cn1nc(Cc3ccncc3)c3ccccc3c1=O)OCO2 | 6 | 106 | 101 | 93
COc1ccc(-c2onc(C)c2C)cc1S(=O)(=O)NCc1cccs1 | . | 105 | 119 | 87
COc1ccccc1C(CC(=O)NC1CCOC(C)(C)C1)c1ccc(OC(C)C)cc1 (configuration not stated) | . | 102 | 109 | 77
CCOC(=O)c1cc(=O)c2c(O)cccc2o1 | 4 | 109 | 109 | 103
O=C1C2C3C=CC(C3)C2C(=O)N1c1ccc(-c2nc3ccccc3o2)cc1 (configuration not stated) | -13 | 106 | 106 | 79
CCNC(=O)CC1C(=O)N(c2ccc(F)cc2)C(=O)N1Cc1ccc(F)cc1 (configuration not stated) | -5 | 101 | 106 | 88
CCc1nnc(NC(=O)CSCc2cc(=O)c3ccc(C)cc3[nH]2)s1 | . | 108 | 75 | 72
CN1CCN(NC(=O)c2csc3ccccc23)CC1 | 0 | 110 | 106 | 102
Cn1c(=O)cc(Nc2ccc(F)c(Cl)c2)c2ccccc21 | . | 97 | 95 | 91
C=CCNc1cnn(Cc2ccccc2)c(=O)c1Cl | -14 | 107 | 86 | 89

A run of entries from further up:
SMILES | HCMV NEC inh | GIV Gai3 FP | Sa growth 42C | Sa growth 42C second temp
Cc1c(C(=O)N2CCCC2)oc2ccc3c(c12)C(O)CC1(CCCCC1)O3 (configuration not stated) | -16&6 | 107&99 | 102 | 69
Cc1ccc(C2C(C#N)=C(N)N(N3CCOCC3)C3=C2C(=O)CC(C)(C)C3)cc1 (configuration not stated) | -16 | 107 | 94 | 93
Cc1ccc(-n2nc(C)cc2N)cc1 | -6 | 107 | 85 | 89
COC(=O)c1cc2c(cc1NC(=O)Cn1nc(Cc3ccncc3)c3ccccc3c1=O)OCO2 | 6 | 106 | 101 | 93
COc1ccc(-c2onc(C)c2C)cc1S(=O)(=O)NCc1cccs1 | . | 105 | 119 | 87
COc1ccccc1C(CC(=O)NC1CCOC(C)(C)C1)c1ccc(OC(C)C)cc1 (configuration not stated) | . | 102 | 109 | 77
CCOC(=O)c1cc(=O)c2c(O)cccc2o1 | 4 | 109 | 109 | 103
O=C1C2C3C=CC(C3)C2C(=O)N1c1ccc(-c2nc3ccccc3o2)cc1 (configuration not stated) | -13 | 106 | 106 | 79
CCNC(=O)CC1C(=O)N(c2ccc(F)cc2)C(=O)N1Cc1ccc(F)cc1 (configuration not stated) | -5 | 101 | 106 | 88
CCc1nnc(NC(=O)CSCc2cc(=O)c3ccc(C)cc3[nH]2)s1 | . | 108 | 75 | 72
CN1CCN(NC(=O)c2csc3ccccc23)CC1 | 0 | 110 | 106 | 102
Cn1c(=O)cc(Nc2ccc(F)c(Cl)c2)c2ccccc21 | . | 97 | 95 | 91
C=CCNc1cnn(Cc2ccccc2)c(=O)c1Cl | -14 | 107 | 86 | 89

Other entries:
SMILES | HCMV NEC inh | GIV Gai3 FP | Sa growth 42C | Sa growth 42C second temp
COc1ccc(/C=C/C(=O)Nc2ccc(N3CCOCC3)c(Cl)c2)cc1 | . | 106 | 96 | 96
O=C(NCCc1nc(-c2ccccc2)no1)c1ccccc1Cl | -12 | 110 | . | .
COc1cccc(N2CCN(C(=O)c3c(C)oc4ncnc(N5CCCCC5)c34)CC2)c1 | . | 114 | 122 | 99
CN(CCc1noc(-c2ccccc2)n1)C(=O)c1cccnc1 | -34 | 106 | . | .
COc1cccc(C2=NOC(C(=O)Nc3ccc4c(c3)OCO4)C2)c1 (configuration not stated) | -26 | 99 | 102 | 77
O=C(Cn1nnc2sc3c(c2c1=O)CCCC3)N1CCCCC1 | -130 | 106 | 99 | 85
CCOC(=O)C1CCN(C(=O)CCc2c(C)nc3c(c(C)nn3-c3ccc(C)c(C)c3)c2C)CC1 | -14 | 98 | . | .
COc1ccc2c(c1)c(/C=C/c1nc3ccccc3c(=O)n1-c1cccc(C)c1)c(C)n2C | -10 | 66* | . | .
CCOc1ccc(CCNS(=O)(=O)c2c(C)nc3sc(C)cn3c2=O)cc1OCC | . | 112 | 109 | 86
Cn1c(SCCS(=O)(=O)c2ccc(OC(F)(F)F)cc2)nnc1C(F)(F)F | -6 | 98 | 85 | 85
Cc1nc2nc(C3CCN(C(=O)OC(C)(C)C)CC3)nn2c(C)c1CCC(=O)O | -2 | 112 | 93 | 97
COc1ccc(N=Nc2c(C)nn(-c3ccc(C)cc3)c2N)cc1OC | -80 | . | 50 | 62
COC(=O)C(C(C)C)N1C(=O)C2C3C=CC(C3)C2C1=O (configuration not stated) | . | 99 | 80 | 87
CCC(C)NC(=O)c1csc2c1CCCC2 (configuration not stated) | -6 | 98&99 | 107 | 88
CCC(C)NS(=O)(=O)c1cc(-c2ccno2)oc1C (configuration not stated) | -32 | 112 | . | .
COc1cc(OC)c(OC)cc1/C=N/NC(N)=O | -38 | . | 93 | 97
Cc1cc(C)cc(N(CC(=O)Nc2nc(C)cs2)S(=O)(=O)c2c(C)nn(C)c2C)c1 | -3 | 98 | . | .
CCOc1ccccc1CNC(=O)CN1C(=O)CCc2cc(S(=O)(=O)N3CCCCC3)ccc21 | . | 106 | 108 | 98
CCOC(=O)C1CCN(C(=O)COc2cc(=O)n(C)c3ccccc23)CC1 | -26 | 99 | 78 | 89
OC[C@H]1OC([S-])[C@H](O)[C@@H](O)[C@@H]1O.[Au+] (some centres not stated) | 58* | . | 94 | 60
COc1cc(NC(=S)NC(C)c2cn(C)nc2C)cc(OC)c1 (configuration not stated) | -17 | 104 | 99 | 90
Cc1cn2c(=O)c(S(=O)(=O)NCC3CCCO3)c(C)nc2s1 (configuration not stated) | -5 | 104 | . | .
O=C(O)Cc1cn(-c2ncc(C(F)(F)F)cc2Cl)c2ccccc12 | -7 | 101 | . | .
Cc1ccc(N2CC(NC(=O)c3ccc(S(=O)(=O)N4CCOCC4)cc3)CC2=O)cc1 (configuration not stated) | . | 96 | 106 | 84
Clc1ccccc1CSc1nnc2n1CCCN2 | 26 | 101 | 98 | 76
Cn1c(=O)cc(OCC(=O)N2CCC(N3CCCCC3)CC2)c2ccccc21 | -18 | 100 | 100 | 88
Cc1ccc2[nH]cc(CCNS(C)(=O)=O)c2c1 | 3 | 104 | 62 | 96
CCCSc1nc2cn(CC)nc2c(=O)n1Cc1ccccc1 | -11 | 102 | 65 | 51
CCCCCCNc1nc2c(c(=O)n(C)c(=O)n2C)n1Cc1cccc(C)c1 | . | 108 | 111 | 92
CC(OC(=O)c1ccncc1)C(=O)Nc1ccc(Cl)cc1Cl (configuration not stated) | -6 | . | 100 | 96
Cc1ccc(-c2nc(CN(C)C)cc(CN(C)C)c2O)cc1 | 14 | 101 | 86 | 77
COCCNC(=O)c1nc(-c2ccc(C(F)(F)F)cc2)no1 | -37 | 102 | 108 | 99
CCCn1c(C)ccc(-c2noc(CCCC(=O)NC3CCCC3)n2)c1=O | -24 | 107 | . | .
COc1ccc2nc(SCC(=O)Nc3ccc4c(c3)C(=O)c3ccccc3C4=O)[nH]c2c1 | -31 | 103 | . | .
O=C(C1CCC1)N1CCC(Oc2nnc(-c3ccccc3)o2)CC1 | -16 | 99 | 92 | 83
CCOC(=O)C1CCCN(C(=O)C2CCN(S(=O)(=O)c3c(C)noc3/C=C/c3ccccc3F)CC2)C1 (configuration not stated) | . | 105 | 106 | 91
CCC(SC1=Nc2ccccc2C2=NC(C(C)C)C(=O)N12)C(=O)N1CCc2ccccc21 (configuration not stated) | -20 | 105 | . | .
CCOC(=O)C1=C(C)N=c2s/c(=C/c3ccccc3OC(C)=O)c(=O)n2C1c1ccc(OC)c(OC)c1 (configuration not stated) | -21 | 92 | . | .
CN(C(=O)c1ccc(-c2nn(C)c(=O)c3ccccc23)cc1)C1CCCCC1 | -4 | 99 | 88 | 96
Nc1ccccc1C(=O)NCC1CCCO1 (configuration not stated) | -6 | . | 104 | 97
CC(C)(C)c1ccc(C(=O)NC(Cc2c[nH]c3ccccc23)C(=O)OCC(=O)c2ccc(Br)cc2)cc1 (configuration not stated) | . | 105 | 118 | 93
CCC(Sc1nnc(-c2cc(C)ccc2NC(C)=O)c(=O)[nH]1)C(=O)Nc1cccc(OC)c1 (configuration not stated) | -42 | 97 | . | .
Cc1ccc(CNC(=O)C2CCCN2S(=O)(=O)c2ccc3c(c2)C(C)(C)C(=O)N3C)cc1 (configuration not stated) | 13 | 102 | . | .
COc1ccc(C2CC(C)=NN2C=O)cc1OC (configuration not stated) | . | 105 | 100 | 93
COC(=O)CC1=CC(=O)N(CC(=O)Nc2ccc(Br)cc2)c2ccccc2N1 | -28 | 104 | . | .
COc1cccc(CNC(=O)CN2C(=O)CSc3ncccc32)c1OC | -23 | 104 | . | .
O=C(NCCNc1ncc(C(F)(F)F)cc1Cl)C(F)(F)Sc1ccccc1 | -7 | 99 | 100 | 89
CC1(C)Cc2cccc(OCC(=O)O)c2O1 | -3 | 105 | 97 | 93
CCOC(=O)CSc1n[nH]c(=S)s1 | 4 | 99 | 76 | 82
CCOC(=O)c1oc2ccccc2c1N | -13 | . | 97 | 98
Nc1nc(Nc2cccc(Cl)c2)sc1C(=O)c1ccc(F)cc1 | -9 | 101 | 68 | 54
Cc1ccccc1-c1nc2scc(CCNC(=O)c3cccc(F)c3)n2n1 | -8 | 102 | . | .
CCCCOc1ccccc1N1C(=O)CC(N2CCN(C(=O)OCC)CC2)C1=O (configuration not stated) | -7 | 102 | 82 | 79
Nc1ccc(-c2ccc(C(=O)O)s2)cn1 | -22 | 94 | 94 | 91
Cc1cccc(-c2nc3c(cnn3-c3ccccc3)c(=O)n2-c2ccc(Br)cc2)c1 | 56* | 110 | 96 | 85
CC(C)(C)c1cc2ncnc(NNC(=O)c3cccs3)c2s1 | -46 | 96 | 89 | 75
N=c1c2c3c(sc2ncn1CCCn1ccnc1)CCCCC3 | 6 | 97 | 87 | 107
COC(=O)c1c(NC(=S)NCCn2cc(Br)cn2)sc2c1CCC2 | -10 | 96 | 119 | 100
O=C(Nc1ccc(S(=O)(=O)NC2=NCCCCC2)cc1)C1COc2ccccc2O1 (configuration not stated) | -21 | . | 96 | 77

Source: PubChem BioAssay (ICCB-Longwood Screening Facility, Harvard Medical School)
